High-throughput results (PubChem BioAssay)
CBX7 inh = inhibitors of human CBX7 binding to H3K27me3 peptide; O95931; AlphaScreen His6-CBX7 / biotin-H3K27me3 peptide binding; active compounds read low; normalised signal (fraction of DMSO) (concentration not given with the values); hit rate 1.1% among 66,000; AID 1224903; in the data active means normalised signal below about 0.5;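 further: 100 nL library stock added to about 20 µL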
Target sequence (O95931 whole entry, looked up): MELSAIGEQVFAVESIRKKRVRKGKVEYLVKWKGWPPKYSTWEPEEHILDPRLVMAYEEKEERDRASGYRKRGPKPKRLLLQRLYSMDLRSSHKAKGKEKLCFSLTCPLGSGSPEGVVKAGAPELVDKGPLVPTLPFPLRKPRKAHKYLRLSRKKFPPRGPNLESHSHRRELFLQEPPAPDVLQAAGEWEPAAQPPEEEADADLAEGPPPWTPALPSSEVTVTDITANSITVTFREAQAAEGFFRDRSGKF
CBX7 inh z-score = recorded beside CBX7 inh, whose call it bears; z-score; measured here: z-score of CBX7 signal; some inactives read as strong as hits; reference of the scale not given here;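 same signal on another scale; lower means less binding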
Numbers without * were called inactive; & = joins results of further samples. Not all compounds are listed; the hit share may differ from the screen's.

SMILES	CBX7 inh	CBX7 inh z-score
O=C(NCCc1ccccc1)c1cc(-c2ccc(Cl)c(Cl)c2)on1	0.99	-0.11
OC(CC#CCN1CCCCCC1)(c1ccccc1)c1ccccc1	0.96	-0.66
O=C(CN1CCCN(Cc2ccc(F)cc2Cl)C1=O)NCc1ccc(F)cc1	0.96	-0.71
COc1cc(-c2ncnn2-c2ccccc2Cl)ccc1OCc1ccccc1	0.95	-0.96
COc1ccc(Br)cc1CN1C(=O)c2ccccc2C1C(=O)NC1CCCCCC1 (configuration not stated)	1	0.43
Cc1ccc(NC(=O)c2csc3c2CCCCC3)c(Cl)c1	1.2	5.7
COc1cccc(NC(=O)NCCCN2CCN(c3ccc(F)cc3)CC2)c1	1.4	3.2
CC1CCCCN1CCNC(=O)c1cc(=O)[nH]c2ccc(S(=O)(=O)N3CCCCCC3)cc12 (configuration not stated)	1	1.2
Cc1ccc(CNC(=O)c2nnc(Cc3ccc(F)cc3)o2)cc1	0.82	-2
Cc1ccccc1CN1C(=O)C(O)(CC(=O)c2ccncc2)c2ccccc21 (configuration not stated)	0.71	-2.8
COc1ccc(CCNc2oc(COc3ccc(F)cc3)nc2C#N)cc1	0.91	-0.12
O=C(CSc1ncc(-c2ccccc2)[nH]1)Nc1cccc(Br)c1	0.97	-1.5
Cc1ccc(Nc2nc(-c3ccc(Cl)cc3)cs2)cc1Cl	0.67&0.61	-5.3&-10
Cc1nnc(Oc2ccc(Cl)cc2)c2ccccc12	1.2	3.4
COc1ccccc1N1CCN(c2nc(C)nc3sc4c(c23)CCC4)CC1	0.93	-0.65
CCOc1ccc(OCC)c(NS(=O)(=O)c2ccc3c(c2)CC(C)N3C(C)=O)c1 (configuration not stated)	0.77	-0.93
COCCNc1c2c(nc3ccccc13)CCC2	1.1	0.57
O=C(CN1C(=O)CSc2ncccc21)Nc1ccc(F)cc1F	0.98	-0.058
COc1ccccc1-c1cc(C(=O)N2CCN(c3ccccc3)CC2)no1	1.1	1.6
COc1ccc2nc(NC(=O)c3ccc(C(C)(C)C)cc3)sc2c1	1.1	0.064

Part of the list above, set out differently:
O=C(NCCc1ccccc1)c1cc(-c2ccc(Cl)c(Cl)c2)on1
  CBX7 inh: 0.99
  CBX7 inh z-score: -0.11

Cc1ccc(CNC(=O)c2nnc(Cc3ccc(F)cc3)o2)cc1
  CBX7 inh: 0.82
  CBX7 inh z-score: -2

COc1ccc(Br)cc1CN1C(=O)c2ccccc2C1C(=O)NC1CCCCCC1 (configuration not stated)
  CBX7 inh: 1
  CBX7 inh z-score: 0.43

COCCNc1c2c(nc3ccccc13)CCC2
  CBX7 inh: 1.1
  CBX7 inh z-score: 0.57

Going on with the list:
SMILES	CBX7 inh	CBX7 inh z-score
CCOc1ccccc1C(=O)Nc1ccc(C)c(C)c1	1.1	0.14
Cc1ccc(OCCn2c(SCC(O)CO)nc3ccccc32)cc1 (configuration not stated)	0.9	-0.36
Fc1ccc(-n2nc(-c3ccc(Cl)cc3)cc2-c2ccc(Cl)cc2)c(Br)c1	0.95	-0.77
COC(=O)c1ccc(NC(=O)Cn2cnc3c(nnn3-c3cccc(Cl)c3)c2=O)cc1	1	0.94
N#Cc1ccccc1Cn1c(-c2nonc2NC(=O)Cn2nnc(-c3ccccc3)n2)nc2ccccc21	1.2	1.8
Cc1ccccc1NC(=O)C(=O)NCCc1c[nH]c2ccccc12	1.1	1.4
COc1ccc(CN2C(=O)c3ccccc3C2C(=O)NCCc2ccccc2)c(OC)c1 (configuration not stated)	1	0.0035
COc1ccc(CCNC(=O)C(=O)Nc2cccc(Br)c2)cc1	1	0.49
Cc1ccc2sc(-c3ccc(NCc4ccc(OCc5ccc(Cl)cc5)cc4)cc3)nc2c1	1.1	0.36
Cc1ccccc1CN1C(=O)c2ccccc2Sc2ccc(C(=O)NCc3ccc4c(c3)OCO4)cc21	0.99	-0.51
O=c1cc(N2CCC3(CC2)OCCO3)[nH]c(=O)n1-c1ccc(Br)cc1	1.1	0.98
Cc1ccc(-c2csc3ncn(CC(=O)NCc4ccc(Cl)cc4)c(=O)c23)cc1	1.2	2.7
O=P(c1ccccc1)(c1ccccc1)c1nc(-c2ccccc2Cl)oc1N1CCOCC1	0.98	-0.57
OC(C#CCN1CCOCC1)(c1ccccc1)c1cccs1 (configuration not stated)	1.3	2.5
COc1ccccc1-c1cc(C(F)(F)F)nc(S(=O)(=O)CCCC(=O)NC2CCCCC2)n1	1.1	1
CC1CCCCN1CCNC(=O)CCn1nc(-c2ccc(Cl)cc2)ccc1=O (configuration not stated)	1.2	3.4
O=C(NCc1ccc(F)cc1)c1ccc2c(c1)ncn2-c1ccc(F)cc1F	0.99	-0.28
COc1ccc(N2C(=O)c3ccccc3C2C(=O)NC2CCCC2)cc1 (configuration not stated)	0.88	-2.1
Cc1ccc(CNC(=O)CCNC(=O)Cn2ccc3ccccc3c2=O)cc1	1	0.031
COc1ccc(Nc2cc(C(=O)NCCc3ccccc3)c3ccccc3n2)cc1	0.92	-0.92
Cc1cc2c3c(c1)c(-c1ccccc1)c(C)n3CCC2	0.54	-4.9
O=C(Nc1nc(-c2ccc(Oc3ccccc3)cc2)cs1)c1cccc(Cl)c1	1.2	5.3
CCOC(=O)CNC(=O)CCC(=O)Nc1ccc2nc(N3CC(C)CC(C)C3)cc(C)c2c1 (configuration not stated)	1	0.26
COc1cccc(CNC(=O)CCNS(=O)(=O)c2ccc(Cl)cc2)c1	1.1	0.74
CCc1ccc(CNC(=O)Cn2nc(-c3ccc(Cl)cc3)ccc2=O)cc1	1	1
O=C(CCCOc1ccc(Cl)cc1)Nc1nc2ccccc2s1	1	0.93
COc1ccc(C)cc1NS(=O)(=O)c1ccc2c(c1)CC(C)N2C(C)=O (configuration not stated)	0.83	-0.67
CCN(c1ccccc1)S(=O)(=O)c1ccc2[nH]cc(C(=O)NCc3ccccc3OC)c(=O)c2c1	0.82	-2.8
Cc1cccc(-c2nnc(SCC(=O)Nc3nccs3)o2)c1	1.4	0.84
O=C1CCN(S(=O)(=O)c2ccccc2)[C@@H]2CCCC[C@H]12	1	0.1

Continued; the last six above are carried over.
SMILES	CBX7 inh	CBX7 inh z-score
CCc1ccc(CNC(=O)Cn2nc(-c3ccc(Cl)cc3)ccc2=O)cc1	1	1
O=C(CCCOc1ccc(Cl)cc1)Nc1nc2ccccc2s1	1	0.93
COc1ccc(C)cc1NS(=O)(=O)c1ccc2c(c1)CC(C)N2C(C)=O (configuration not stated)	0.83	-0.67
CCN(c1ccccc1)S(=O)(=O)c1ccc2[nH]cc(C(=O)NCc3ccccc3OC)c(=O)c2c1	0.82	-2.8
Cc1cccc(-c2nnc(SCC(=O)Nc3nccs3)o2)c1	1.4	0.84
O=C1CCN(S(=O)(=O)c2ccccc2)[C@@H]2CCCC[C@H]12	1	0.1
O=C(CCN1C(=O)COc2ccccc21)NCc1ccccn1	0.16*	-12*
CCC(C)NC(=O)c1cc2c(s1)CS(=O)(=O)C2 (configuration not stated)	1	0.17
CCOc1ccc(C(=O)Nc2ccc(S(=O)(=O)Nc3nnc(CC)s3)cc2)cc1	1.3	2.5
CCCn1c(CNC(=O)c2ccc(OC)c(OC)c2)nc2ccccc21	0.96	-1.4
COc1ccc2nc(SCC(=O)Nc3nccs3)[nH]c2c1	0.96&0.8	-0.45&-0.27
COc1cccc(-c2nc(CS(=O)(=O)CC(=O)Nc3cc(Cl)ccc3OC)c(C)o2)c1	1	0.6
CCOc1ccc(CCN2C(=O)CCC2(C)C(=O)NC(C)CC)cc1OCC (configuration not stated)	0.91	-1.5
Cc1cc(C)cc(Nc2cc(C(=O)NCc3ccc4c(c3)OCO4)c3ccccc3n2)c1	1.2	3
CCOc1ccccc1NC(=O)c1c(NCc2cccnc2)sc2c1CCC(C)C2 (configuration not stated)	0.91	-4.9
Cn1c(=O)[nH]c(=O)c2c1nc(CN1CCOCC1)n2CC(N)=O	0.99	-0.36
COc1ccc(CNc2nc(-c3ccc(C)cc3)cc(C(F)F)n2)cc1	1.5	8.5
CCOc1ccccc1CNC(=O)C1c2ccccc2C(=O)N2CCc3cc(OC)c(OC)cc3C12 (configuration not stated)	1	0.43
O=C(CCCCn1c(=O)[nH]c2ccsc2c1=O)NCCc1ccc(Cl)cc1	1	0.34
CCOC(=O)c1oc2ccccc2c1NC(=O)c1cccc(OC)c1	1.2	7.7
Cc1cc(C)cc(NC(=O)c2cnn(-c3ccc(C)c(C)c3)c2C2CCNCC2)c1	0.98	-0.29
Cc1ccccc1Nc1c(-c2cccnc2)nc2ccc(Br)cn12	0.82	-1.8
CCOC(=O)c1ccc(NC(=O)CN2C(=O)CC(C)(C)Sc3ccccc32)cc1	0.96	-1.2
COc1ccc(-c2nc(C(=O)NCCc3ccccc3)c(C)o2)cc1	0.92	-0.088
COc1ccc(N2Cc3cccc(C(=O)Nc4cccc(C)c4C)c3C2=O)cc1	0.87	-3.1
CCOC(=O)c1cnc2ccc(OCC)cc2c1Nc1ccc(Cl)c(Cl)c1	1.1	0.82
CCCn1cc(C2CC(=O)N(c3ccc(Br)cc3)C2=O)c2ccccc21 (configuration not stated)	1.1	2.2
COc1ccc(C(C(=O)NC2CCCC2)N2CCCC(C)C2)cc1 (configuration not stated)	0.97	-0.82
O=C(CCC1=NS(=O)(=O)c2ccccc2N1)N1CC=C(c2ccccc2)CC1	1	0.74
CCOc1cc2c(cc1OCC)C(c1c(OC)ccc3ccccc13)NCC2 (configuration not stated)	0.91	-1.5
CC1CCN(S(=O)(=O)c2ccc3ncn(CC(=O)N4CCCCCC4)c(=O)c3c2)CC1	1.2	2
Cc1nc2ccc(S(=O)(=O)N(C)CC(=O)NC3CCCCCC3)cc2s1	1.3	1.5
COc1ccc(-c2cc3cc(OC)c(OC)cc3c(Cc3ccccc3)n2)cc1C	0.94	-0.86
CCCCNC(=O)CCn1nc(-c2ccc(Cl)cc2)c2ccccc2c1=O	1.1	1.6
CN(Cc1ccccc1)C(=O)CN1C(=O)CSc2ccc(S(=O)(=O)N3CCOCC3)cc21	0.95	-1.6
Cn1cnc(C(N)=O)c1C(N)=O	1.1	1.6
Cc1ccc(NC(=O)CN(c2ccc(C(C)C)cc2)S(=O)(=O)c2c(C)nn(C)c2C)cc1C	0.96	-0.78
COCCCNS(=O)(=O)c1ccc2c(c1)CCN2C(=O)C1CC1	1	0.51
COc1ccc(-c2noc(CCC(=O)N3CCN(c4ccccc4)CC3)n2)cc1	0.97	-0.45
O=C(Cn1ccc2ccccc2c1=O)NCCC(=O)Nc1ccc(F)cc1Cl	1	-0.045
OC1(c2ccccc2)C2CC3CC(C2)CC1C3 (configuration not stated)	1.1	0.66
Cc1ccc2c(c1)-c1c(cnn1CC(=O)N1CCOCC1)CO2	1	0.21
COc1ccc2c(c1)c(C(=O)N1CCN(c3ccccc3C)CC1)c(C)n2-c1ccccc1	0.54	-12
Cc1ccccc1C1CC(=O)N(c2ccc(F)cc2F)C2=C1C(=O)CCC2 (configuration not stated)	1.2	1.5
CC(C)CCOc1cccc(C(=O)Nc2ccc3nn(-c4cccc(Cl)c4)nc3c2)c1	1	0.98
CCOc1ccc2nc(N3CCCC(C(=O)Nc4ccc(Cc5ccncc5)cc4)C3)sc2c1 (configuration not stated)	0.78	-5.9
O=c1[nH]c(CN2CCN(c3cccc(Cl)c3)CC2)nc2ccccc12	0.85	-1.8
CCc1cc2c(=O)c(-c3ccc4c(c3)OCO4)c(C)oc2cc1OC(C)=O	0.97	-0.97
Cc1ccc(-n2c(CCC(=O)O)ccc2-c2cccs2)cc1	1	-0.058
Cc1ccc(C)c(NC(=O)Cn2cc(S(=O)(=O)c3ccccc3)c(=O)c3ccccc32)c1	0.94	-0.99
COc1ccccc1CNC(=O)c1ccc(CNc2c(N3CCC(C)CC3)c(=O)c2=O)cc1	1	1.7
O=C(c1cc(-c2ccncc2)nc2ccccc12)N1CCN(c2ccccc2)CC1	1	0.67
CCOc1ccc(C(=O)N(Cc2ccccc2)C2CCS(=O)(=O)C2)cc1 (configuration not stated)	0.96	-0.48
Cc1nc2c(C(=O)NCCCN3CCOCC3)cnn2c(C)c1Cc1c(F)cccc1Cl	1	0.72
Cn1cc(CCC(=O)NCc2cccs2)c2ccccc21	1	0.72
CCC(C)NC(=O)C(Cc1ccccc1)NS(=O)(=O)c1ccc2c(c1)CCC(=O)N2 (configuration not stated)	1.1	0.68
Carrying on.
SMILES	CBX7 inh	CBX7 inh z-score
Cc1ccc(CCNC(=O)CN2C(=O)CSc3ccccc32)cc1	0.74	-4.5
COc1ccc(-c2nc3cc(NC(=O)c4cc(Cl)ccc4Cl)ccc3o2)cc1	1.1	2.3
CCOC(=O)c1nnn(-c2nonc2N)c1CN(CC)CC	1	0.41
CC(NC(=O)C(=O)NCc1cccnc1)C(c1cccs1)N1CCN(Cc2ccccc2)CC1 (configuration not stated)	1.1	1.4
CC1CCN(c2nc3ccc(C(=O)NC4CCCCC4)cc3s2)CC1	1	0.097
c1ccc(-c2ccc(C3CC(c4cccs4)n4ncnc4N3)cc2)cc1 (configuration not stated)	0.95	-1.8
O=C(NCCC1=CCCCC1)C1CCN(C(=O)c2cnn(-c3ccccc3)c2-n2cccc2)CC1	1.1	0.84
CCC(=O)N1CCc2cc(S(=O)(=O)NC(CC(C)C)C(=O)N3CCCCCC3)ccc21 (configuration not stated)	1.2	2
